# Screening data from PubChem.
# D2 PAM = human D2 receptor positive allosteric modulation | P14416 | DiscoveRx D2 beta-arrestin cells, luminescence, 90 min; 100% = 57 uM dopamine signal | potentiation, % (concentration not given with the values) | 360,000 compounds, 0.23% hits | AID 624464; active = potentiation of 50% or more; inconclusive = 30% to 50%; inactive = 30% or less;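 also: tested on top of an EC20 dose of dopamine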
#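 D2 cells co-treated with compound plus 50 nM dopamine (EC20) for 90 min at 37 deg C to detect potentiation. Beta-arrestin recruitment was read as enzyme-fragment luminescence after 1 h at ambient temperature. Full response was set by 57 uM dopamine.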
# TRPML1 agonist = human mucolipin-1 channel agonism; TRPML1-expressing cells, Ca2+ dye fluorescence, FDSS; host cell line not named in the record; reference of the full effect not given here; 410,000 compounds, 0.12% hits; AID 624414; activation, % (no concentration beside the values); in the data active = activation above about 50%; inconclusive = about 30% to 50%; inactive = below about 30%; also: 0% is about no effect; the text of the record puts the active cut at 80%
#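 TRPML1-DL cells, Tet-induced overnight (~16 h, 37 degrees C), loaded 45-90 min at room temperature with Ca8 no-wash calcium dye plus quencher. FDSS fluorescence: 10 s baseline, compound pin-transfer, 110 s agonist read, then EC80 54-4 (4uM final) and 110 s antagonist read.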
# CtBP-E1A blk = blocks the CtBP interaction with E1A | activity change, % (test concentration not listed) | AlphaScreen GST-E1A/His-CtBP binding, 1536-well; active compounds read low; control for the full effect not named in the record | 340,000 compounds, 0.49% hits; in the data active means activity change below about -65%; inconclusive means about -30% to -65%; inactive means above about -30%; also: % is scaled to controls: 0 for no effect and ±100 for the full control effect
#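 GST-E1A and His-tagged CtBP (125 nM each as 5X stock) were preincubated with pin-transferred compound for 2 h at 37 °C in the dark, then glutathione donor and nickel acceptor beads were added for 1 h before AlphaScreen reading.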
# Six1-Eya2 blk = inhibitors of human Six1/Eya2 interaction; AlphaScreen GST-Six1/His-Eya2 binding, biochemical; active compounds read low; control for the full effect not named in the record; 360,000 compounds, 0.56% hits; activity change, % (concentration not given with the values); Q15475+O00167; in the data active = activity change below about -65%; inconclusive = about -30% to -65%; inactive = above about -30%; also: % is scaled to controls: 0 for no effect and ±100 for the full control effect
# Target sequence (O00167 whole entry, looked up): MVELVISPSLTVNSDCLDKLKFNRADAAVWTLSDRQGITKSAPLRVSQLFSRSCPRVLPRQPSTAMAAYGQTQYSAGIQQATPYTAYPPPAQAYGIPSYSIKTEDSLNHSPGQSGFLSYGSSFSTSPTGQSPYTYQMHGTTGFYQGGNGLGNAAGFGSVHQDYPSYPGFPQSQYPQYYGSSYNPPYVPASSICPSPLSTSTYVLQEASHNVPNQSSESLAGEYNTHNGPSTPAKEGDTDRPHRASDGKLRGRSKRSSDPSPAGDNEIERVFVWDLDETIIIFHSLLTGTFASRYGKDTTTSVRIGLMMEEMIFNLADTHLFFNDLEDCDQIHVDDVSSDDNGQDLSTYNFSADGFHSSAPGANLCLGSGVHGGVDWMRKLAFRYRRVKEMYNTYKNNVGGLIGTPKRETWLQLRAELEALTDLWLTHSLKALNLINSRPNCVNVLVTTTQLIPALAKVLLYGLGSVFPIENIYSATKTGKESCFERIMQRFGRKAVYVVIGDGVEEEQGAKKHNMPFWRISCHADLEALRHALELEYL
# Target sequence (Q15475 whole entry, looked up): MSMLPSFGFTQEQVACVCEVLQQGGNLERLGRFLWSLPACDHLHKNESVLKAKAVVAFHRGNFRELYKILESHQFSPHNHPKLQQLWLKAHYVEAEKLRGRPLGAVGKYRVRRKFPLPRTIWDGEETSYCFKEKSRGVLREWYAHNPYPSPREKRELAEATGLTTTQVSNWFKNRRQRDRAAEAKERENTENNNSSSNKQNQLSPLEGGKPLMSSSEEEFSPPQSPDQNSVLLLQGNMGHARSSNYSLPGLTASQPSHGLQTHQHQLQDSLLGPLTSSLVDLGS
#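 GST-Six1 + His-Eya2 (5X stock: 250/500 nM); Tris pH 8.0, 300 mM NaCl, 0.05% BSA, 0.02% Tween 20; GSH donor/Ni acceptor beads; 1 h 37 °C dark; AlphaScreen readout.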
# PINK1 expr mod = PINK1 expression modulation. PINK1 immunofluorescence, high-content cytometry, 24 h. 410,000 compounds, 0.2% hits. AID 624263. Potency, µM (highest dose often 76.6 µM), inactives show at the highest dose activation (PINK1 increase), actives largely listed as activators; active = well fitted activation curve with a large enough effect; inconclusive = small, poorly fitted or top-dose-only effect; inactive = flat fitted curve, though single readings scatter; cell line not stated here;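 also: potency is read from the fitted curve at half-maximal effect; % of control where 0% means no effect; nearly all actives have a fitted effect of over 65% in size; a mitochondrial uncoupler was the plate control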
#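 Readout is PINK1 immunofluorescence, quantified alongside mitochondrial, cell and nuclear markers by laser-scanning microplate cytometry. Cells from a stable line were exposed to compound titrations (5 concentrations) for 24 hours, with CCCP controls.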
# D2 agonist = activates the human D2 dopamine receptor; P14416; DiscoveRx PathHunter D2 beta-arrestin, luminescence, 90 min; 100% = 57 uM dopamine signal; activation, % (concentration not given with the values); 360,000 compounds, 0.084% hits; AID 624465; in the data active = activation above about 40%; inconclusive = about 15% to 40%; inactive = below about 15%; also: the text of the record calls up to 30% inactive
#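 DiscoveRx PathHunter D2 beta-arrestin cells (2,100/well) attached overnight, then compound-stimulated 90 min at 37 C in HBSS/10 mM HEPES/0.1% Tween-20 buffer; beta-galactosidase complementation read by luminescence after 1 h at ambient temperature. Dopamine 57 uM final (EC100) as control.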
# Starred values were filed as active, the others as inactive; ? = inconclusive; . = no result given; & = joins results of further samples; [ ] = remark or other dose.
SMILES,D2 PAM,TRPML1 agonist,CtBP-E1A blk,Six1-Eya2 blk,PINK1 expr mod,D2 agonist
Cc1cccc(N2CCN(C(=O)c3cccc(S(=O)(=O)N4CCc5ccccc5C4)c3)CC2C)c1 (stereo not given),11,0.1,21,-8,-0.4%,1.9
COc1cc(/C=C2/C(=N)N3C(=NC2=O)SN=C3S(C)(=O)=O)ccc1OS(=O)(=O)c1ccc(C)cc1,-39,-0.1,-30,-9,1.5%,-0.8
Cc1c(NC(=O)CSC(=S)N2CCCC2)c(=O)n(-c2ccccc2)n1C,-16,0.0,14,2,-0.1%,-7.9
O=C(NCC1CCN(Cc2ccccc2F)CC1)C1CCCN(c2ncnc3c2nc2n3CCCCC2)C1 (stereo not given),-20,1.2,0,-5,0.3%,3.2
CC1=C([N+](=O)[O-])C(c2ccccc2)C2=C(N1)c1ccccc1C2=O (stereo not given),-41,1.2,-30,?,9.9%,-9.8
CN(C)c1ccc(C=Cc2ccnc3ccccc23)cc1N,-5,0.0,0,-24,2.5%,-3.4
COc1ccc(S(=O)(=O)N2CCC3(CC2)CC(=O)c2ccccc2O3)cc1C,2,-0.3,-2,1,7.9%,2.3
CCc1ccc(NC(=S)N(CCC(C)C)C2CCN(C(C)=O)CC2)cc1,-1,-0.2,3,-2,2.9%,-8.1
N#Cc1ccc2ccn(CC(=O)NC3CCCCCC3)c2c1,-14,0.9,1,7,-1.3%,-1.6
CC(=O)N1CCc2cc(S(=O)(=O)CCC(=O)N3CCc4ccccc4C3)ccc21,0,0.2,-2,9,-2.4%,-0.3
CN(C)c1ccc(C(CC(=O)c2ccccc2)C2CCCCC2=O)cc1 (stereo not given),-5,-0.4,-7,-14,0.4%,-7.7
CC1CN(C(=O)CSc2nnc(-c3ccncc3)n2-c2ccccc2)CC(C)O1 (stereo not given),?,0.6,-7,-6,.,-2.5
Cc1sc2nc(CSc3ccc([N+](=O)[O-])c(C(F)(F)F)c3)[nH]c(=O)c2c1C,-13,1.5,-5,3,12%,3.1
CNC[C@H]1Oc2c(NC(=O)C3CC3)cccc2C(=O)N([C@H](C)CO)C[C@@H]1C,-3,0.0,0,7,0.1%,-2.4
CCC(C)NC(=O)CSc1ccc(S(=O)(=O)N(C)C2CCCCC2)cn1 (stereo not given),-17,2.4,1,1,-0.3%,1.2
CC(=O)C1=C(C)NC(=O)NC1c1cc(Br)ccc1OCC#N (stereo not given),-6,1.5,1,7,-1.3%,-1.9
Cc1cccc(NC(=O)c2nnn(-c3cccc(C(F)(F)F)c3)c2N)c1,-3,0.0,6,0,8.9%,-1.5
COc1cc2sc(-c3ccccc3OC)c(-c3ccc(OCCN4CCCCC4)cc3)c2cc1OC,-89,-0.1,-5,?,-1.3%,4.7
CCC1(c2ccccc2)NC(=S)N(c2ccc(C)c(C)c2)N1 (stereo not given),-9,-0.4,13,-16,-0.4%,-5.2
Cc1ccc(NCc2nnc(SCC(=O)OC3CCCCC3)o2)c(C)c1,-3,2.5,-19,-12,0.4%,-2.2
Brc1ccc(C2=Nn3c(nnc3-c3n[nH]c4c3CCC4)SC2)cc1,23,2.3,-15,-3,-2.1%,-0.9
CCCCNC(=S)NC1CCCC1,-1,-0.4,8,9,1.3%,-2.9
c1ccc(Sc2cnc3ccccc3n2)cc1,22,1.0,26,35,-1.6%,-3.7
COc1ccc(NC(=O)CSc2nc3c([nH]c4ccccc43)c(=O)n2C)c(OC)c1,-6,1.1,-4,17,?,-4.2
O=C(NCC(=O)N1CCCC(C(F)(F)F)C1)c1ccco1 (stereo not given),4,0.5,.,5,-0.1%,-2.0
COc1ccccc1CCNC(=O)c1ccc(C)o1,-4,-0.4,44,0,?,-2.2
O=S(=O)(Cc1ccccc1)N1CCCc2ccccc21,-2,-0.5,1,1,0.8%,-0.5
Cc1cc2oc(=O)cc(CN3CCC(C)CC3)c2cc1Cl,-2,-0.3,1,-1,1.8%,-1.8
Cc1cc(OCC(=O)Nc2c(C)n(C)n(-c3ccccc3)c2=O)ccc1[N+](=O)[O-],-1,-0.5,10,-1,-0.7%,4.0
CCn1cnc2cc(NCc3ccc(N(C)C)cc3)ccc21,-9,-1.0,-11,-24,-0.7%&0.7%,-2.2
Nc1nc(Nc2ccccc2Br)nc(C(F)(F)F)n1,-2,-0.4,4,-3,7.1%,2.6
CSCCC(NC(=O)CCN1C(=O)c2ccccc2C1=O)C(=O)O (stereo not given),4,-0.8,3,-1,2.7%[38.3 µM],-1.5
CCOC(=O)[C@H]1[C@H]2COc3ccc(Br)cc3[C@@H]2N2C(=O)c3ccc(C)cc3NC(=O)[C@@]12C,-8,2.0,-6,-11,1.1%,-0.7
COc1ccccc1C(=O)NCC(=O)OCCCOC(=O)CNC(=O)c1ccccc1OC,-11,0.5,10,2,1.6%,0.7
O=C(NC(C(=O)N/N=C/c1ccncc1)c1n[nH]c(=O)c2ccccc12)c1ccccc1 (stereo not given),-1,0.8,7,0,0.9%,-1.6
COc1ccc(COC(=O)C2CCN(S(=O)(=O)c3cccs3)CC2)cc1,-3,5.3,8,0,-1.3%,2.0
O=C(NC1CC1)c1nc(Cn2cc([N+](=O)[O-])cn2)no1,-3,-0.6,.,2,2.6%,-0.2
CC(C)Cn1c(N)c(C=O)c(=O)n(C)c1=O,7,0.3,-13,-1,-0.3%,5.9
Cc1ccc(OCC(=O)N2CCCC(CO)(CCOc3ccccc3)C2)cc1 (stereo not given),-12,0.4,-9,1,2.5%,-1.2
CN(C)/C=N/c1nc2nccc(-c3ccc(Cl)cc3)n2n1,4,0.6,0,0,-0.5%,1.8
COc1cc(/C=C2\SC(=O)NC2=O)ccc1Oc1ccc([N+](=O)[O-])cc1[N+](=O)[O-],17,-0.7,-11,0,7.9%,?
O=C(COC(=O)c1cc(=O)[nH]c2ccccc12)c1ccccc1,2,1.0,11,2,2.0%,1.8
COc1cc(OC)cc(C(=O)N2CCN(C3CCC(C)CC3)CC2)c1 (stereo not given),-9,-0.2,7,-4,0.6%,-1.1
CCCn1nc2cc(C(=O)NCc3ccc4c(c3)OCO4)ccc2c1OCC,-6,-0.2,-5,-4,0.9%,-5.2
COCCN1Cc2cccc(C(=O)Nc3cccnc3)c2C1=O,-4,-1.4,2,-2,1.6%,-3.9
O=C(O)c1cccc(N2C(=O)c3ccc(Oc4ccc(Cl)cc4)cc3C2=O)c1,-1,0.1,2,4,2.2%,-0.3
Cc1nc(Cl)c(C(=O)NC(=O)NCc2ccccc2)c(C)c1Cl,-10,13,3,5,-0.9%,-5.7
COc1ccc(C(=O)N2CCC(C)(C(=O)NS(=O)(=O)C3CC3)C2)c(OC)c1 (stereo not given),-1,-0.7,5,-2,-0.4%,-3.5
Nc1c(C(=O)Nc2ccc3c(c2)OCCO3)nnn1Cc1ccccc1,-4,0.2,1,-5,17%,-1.3
CC1CN(CC(=O)N2CCc3[nH]c4ccccc4c3C2)CC(C)O1 (stereo not given),-11,0.8,6,8,-0.4%,1.2
# Other structures.
SMILES,D2 PAM,TRPML1 agonist,CtBP-E1A blk,Six1-Eya2 blk,PINK1 expr mod,D2 agonist
CCCCCn1c(Sc2nc3ccccc3s2)nc2c1c(=O)[nH]c(=O)n2C,3,2.7,2,-4,.,-0.6
CC(CCc1ccccc1)NC(=O)COC(=O)C(CCC(N)=O)NC(=O)c1ccc(F)cc1 (stereo not given),-8,-0.4,.,7,-1.3%,-3.8
CC(C)C1(c2ccsc2)NC(=O)NC1=O (stereo not given),8,0.2,0,1,0.4%,-3.2
COC(=O)c1ccccc1NC(=O)CSc1nc(Nc2ccccc2)nc(N2CCOCC2)n1,-10,0.8,-12,-14,-0.4%,-1.3
Oc1c(C=NCc2ccncc2)sc2ccccc12,-13,-0.4,-9,-2,-0.3%,-9.4
COc1ccc(NC(=O)Nc2ccc3c(c2)C(=O)N([C@H](C)CO)C[C@H](C)[C@H](CN(C)Cc2ccc(C(=O)O)cc2)OCCCC[C@@H](C)O3)cc1,14,-0.7,5,-3,2.1%,-4.5
COc1cccc(C2=NOC(C(=O)NCc3ccccc3)C2)c1 (stereo not given),-1,0.3,7,8,9.0%,-0.5
O=C(O)c1cc(NCc2ccc3c(c2)OCO3)ccc1N1CCOCC1,-2,-0.3,-12,-2,.,5.9
COc1ccc(NS(=O)(=O)c2cn(C)c(=O)n(C)c2=O)cc1,-8,1.0,6,7,-1.0%,0.3
CN(C)C(=O)c1ccc(COc2ccccc2Br)o1,-13,0.8,3,-7,-0.2%,-4.8

# Entries shown so far that contain a furan ring, fused or not:
SMILES,D2 PAM,TRPML1 agonist,CtBP-E1A blk,Six1-Eya2 blk,PINK1 expr mod,D2 agonist
O=C(NCC(=O)N1CCCC(C(F)(F)F)C1)c1ccco1 (stereo not given),4,0.5,.,5,-0.1%,-2.0
COc1ccccc1CCNC(=O)c1ccc(C)o1,-4,-0.4,44,0,?,-2.2
CN(C)C(=O)c1ccc(COc2ccccc2Br)o1,-13,0.8,3,-7,-0.2%,-4.8

# Reprinted from above (5 entries):
SMILES,D2 PAM,TRPML1 agonist,CtBP-E1A blk,Six1-Eya2 blk,PINK1 expr mod,D2 agonist
COc1ccc(NC(=O)Nc2ccc3c(c2)C(=O)N([C@H](C)CO)C[C@H](C)[C@H](CN(C)Cc2ccc(C(=O)O)cc2)OCCCC[C@@H](C)O3)cc1,14,-0.7,5,-3,2.1%,-4.5
COc1cccc(C2=NOC(C(=O)NCc3ccccc3)C2)c1 (stereo not given),-1,0.3,7,8,9.0%,-0.5
O=C(O)c1cc(NCc2ccc3c(c2)OCO3)ccc1N1CCOCC1,-2,-0.3,-12,-2,.,5.9
COc1ccc(NS(=O)(=O)c2cn(C)c(=O)n(C)c2=O)cc1,-8,1.0,6,7,-1.0%,0.3
CN(C)C(=O)c1ccc(COc2ccccc2Br)o1,-13,0.8,3,-7,-0.2%,-4.8

# The results go on.
SMILES,D2 PAM,TRPML1 agonist,CtBP-E1A blk,Six1-Eya2 blk,PINK1 expr mod,D2 agonist
COc1ccc(CCC(=O)NNC(=O)Nc2cccc(Cl)c2)cc1,-5,-0.2,4,0,-0.4%,0.9
COc1cccc(-c2cnc3c(NC=O)cc(-c4ccc(N(C)C)cc4)cn23)c1,-6,4.7,?,?,1.6%,-3.5
Cc1ccc(C(=O)N/C(=C\c2ccc(F)cc2)C(=O)NCCCn2ccnc2)cc1,-8,1.8,-16,-2,0.3%,0.5
Cc1ccc(C(=O)NCCCN2CCOCC2)cc1N1CCCC1=O,-16,-0.3,2,-3,-0.8%,-1.0
CCC1CCc2c(n(C)c3ccccc3c2=O)O1 (stereo not given),11,-0.8,-3,-5,-0.1%,-2.3
CC(C)(C)Nc1nc(NCc2cccnc2)nc(N2CCOCC2)n1,-10,0.2,2,6,0.1%,-3.7
CC(C)(C)CN1CCN(CC#Cc2ccccc2)CC1CCO (stereo not given),-39,-0.5,.,-1,3.2%,-2.0
CCCCNC(=O)C1(C)CCCCN1CC(=O)c1ccc(OC)cc1 (stereo not given),-5,0.0,-10,9,0.0%,-2.4
Cc1cccc(C(=O)NNC(=O)c2ccc(F)cc2)c1,0,0.0,8,4,0.6%,-3.6
CNC(=O)c1ccccc1Sc1ccccc1CO,1,0.1,9,6,0.5%,2.5
COCC(=O)N(c1ccc(C(C)C)cc1)C1C=CS(=O)(=O)C1 (stereo not given),0,0.4,5,2,-0.5%[38.3 µM],-0.6
